Rce1 inh: blocks yeast Ras-converting enzyme; hit rate 0.27% among 290,000; calls only; Q03530; yeast membranes, quenched prenylated peptide cleavage fluorescence;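 active means fall in fluorescence gain of 50% or more versus controls, with final raw signal at or below 3038400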;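 further: plate controls were neutral control wells for no effect and wells lacking membranes for full effect; tested at 10 µM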
Target sequence (Q03530 whole entry, looked up): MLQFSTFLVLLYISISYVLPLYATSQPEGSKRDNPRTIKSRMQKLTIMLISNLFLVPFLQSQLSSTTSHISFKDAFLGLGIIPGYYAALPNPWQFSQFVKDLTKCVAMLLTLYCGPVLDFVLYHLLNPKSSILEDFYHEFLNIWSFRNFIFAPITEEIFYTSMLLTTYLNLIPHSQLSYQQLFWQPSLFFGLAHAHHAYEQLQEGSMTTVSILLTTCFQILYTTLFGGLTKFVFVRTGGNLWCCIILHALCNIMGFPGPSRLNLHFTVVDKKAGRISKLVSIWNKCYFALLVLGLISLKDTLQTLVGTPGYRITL
PABP polyA inh: blocks human PABP binding to poly(A) RNA; inhibition, % at 35 µM; hit rate 1% among 290,000; fluorescence polarization;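 active means 50% or more with normal probe brightness, or confirmed in later tests; about a fifth of its hits are not listed in these tables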;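 further: calls also rest on retests at 20 µM and on dose response follow-up; controls were probe without protein and protein plus probe with vehicle; some compounds called inactive have numbers as strong as hits; many hits fall short of the cut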
Target sequence (P11940 whole entry, looked up): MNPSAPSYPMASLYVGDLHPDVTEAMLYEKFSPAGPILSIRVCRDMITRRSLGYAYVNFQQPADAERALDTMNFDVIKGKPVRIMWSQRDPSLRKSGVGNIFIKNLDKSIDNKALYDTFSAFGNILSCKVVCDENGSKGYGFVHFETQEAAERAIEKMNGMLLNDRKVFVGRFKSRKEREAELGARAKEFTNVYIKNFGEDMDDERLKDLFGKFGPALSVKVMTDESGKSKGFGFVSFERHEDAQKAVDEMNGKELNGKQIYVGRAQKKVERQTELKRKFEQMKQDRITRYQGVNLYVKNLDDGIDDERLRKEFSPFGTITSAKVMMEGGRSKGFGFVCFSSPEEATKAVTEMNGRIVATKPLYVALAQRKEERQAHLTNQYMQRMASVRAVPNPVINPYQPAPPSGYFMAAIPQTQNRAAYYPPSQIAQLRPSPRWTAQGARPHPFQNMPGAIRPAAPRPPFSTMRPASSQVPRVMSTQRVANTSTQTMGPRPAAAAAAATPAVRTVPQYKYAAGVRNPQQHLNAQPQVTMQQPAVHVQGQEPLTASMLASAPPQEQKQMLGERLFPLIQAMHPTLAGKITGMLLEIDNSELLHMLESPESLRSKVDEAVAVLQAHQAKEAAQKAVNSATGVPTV
Yeast UUG start: yeast start codon fidelity modulation; S. cerevisiae UUG-firefly luciferase reporter, luminescence/redox ratio; activity score, % at 18.7 µM; hit rate 0.13% among 350,000; AID 602363;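 active means replicate mean at a twofold rise or more, about +100% in these data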;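 further: firefly luciferase made from a UUG start codon reports start codon fidelity; reporter light over untreated wells divided by growth signal over untreated wells; some hits fall short of that in this replicate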
MT1-MMP act inh: MT1-MMP (human) activation inhibition | GFP/RFP ratio change, % at 20 µM | P50281 | HT1080 RFP-PRO-GFP cells, GFP/RFP ratio fluorescence, overnight; percent of plate control window, DMSO zero | hit rate 0.061% among 360,000 | AID 651647;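 active means GFP/RFP ratio change of at least 30% with cell ATP level not reduced by more than half and red fluorescence within 50% of control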; further: strong numbers were not always called active
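Assay system: HT1080 RFP-PRO-GFP cells. Benchmarks: DMSO vehicle wells and RFP-L50D-GFP reporter cell wells. Times: overnight cell settling, then overnight compound exposure, 37 °C, 5% CO2. Compound: 20 µM single dose, 1% DMSO. Read-out basis: GFP/RFP fluorescence ratio.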
eIF4H inh: inhibitors of RNA binding by human eIF4H; Q15056; eIF4H fluorescence polarization binding assay; inhibition, % at 35 µM; hit rate 0.94% among 290,000; AID 2012;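 active means 50% or more with normal probe brightness, or confirmed in later tests; about a fifth of its hits are not listed in these tables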;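 further: calls also rest on retests at 20 µM and on dose response follow-up; 0% = protein and probe with vehicle and 100% = probe without protein; strong numbers were not always called active; many hits fall short of the cut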
Env fusion inh: blocks HIV Env-driven cell-cell fusion; HeLa-JRFL Env/CEM21 cell fusion, luciferase; inhibition, % at 12.3 µM; hit rate 1.1% among 360,000;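 active means mean replicate inhibition score of at least 50 and every replicate individually at or above 50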;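 further: 0% = plate neutral controls and 100% = maraviroc near 300 nM; one replicate is shown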
CSC inhib: cancer stem cell inhibition | hit rate 1.1% among 300,000 | cancer stem cell-like cells viability, luminescence | AID 2717 | inhibition, % at 7.5 µM;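 active means mean at 75% or more and at least half the replicates too; tested in HMLE shEcad cells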;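 further: 0% = median of negative and 100% = median of positive control wells; the first replicate is given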
eIF4H inh retest: second read-out of eIF4H inh, no call of its own (marks repeat the call); inhibition, %; compound at 20 µM; confirmation average;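 mean of two retest wells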
PABP polyA inh retest: second read-out of PABP polyA inh, no call of its own (marks repeat the call); inhibition, %; compound at 20 µM; confirmation repeats;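 mean of two retest wells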
MT1-MMP act inh RFP: second read-out of MT1-MMP act inh, no call of its own (marks repeat the call); RFP signal change, %; measured here: RFP expression control read;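 0 = vehicle wells; hits needed this value within 50% of zero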
* hit, by the source's call; i = inactive; · = not tested or not shown.

The first 6 compounds, ahead of the listing:
SMILES	Rce1 inh	PABP polyA inh	Yeast UUG start	MT1-MMP act inh	MT1-MMP act inh RFP	eIF4H inh	Env fusion inh	CSC inhib	others
CCC(C)NC(=O)CNC(=O)Cn1c(C)cc2ccccc2c1=O (stereo unspecified)	i	12.3	-12.3	3.0	5.0	2.3	-16.3	-3.8
O=C(O)CC1(CC(=O)Nc2ccc(C(F)(F)F)cc2)CCCC1	i	6.6	-3.5	-0.1	4.3	5.3	5.9	10.8
O=C(/C=C/c1ccc(OC(F)F)cc1)Nc1cccc(S(=O)(=O)NC2=NCCCCC2)c1	i	-8.5	-7.5	-0.6	-22.5	-16.8	7.9	18.1
Fc1ccc(Nc2nnc(C(F)(F)F)s2)cc1Cl	i	-2.3	-8.3	-11.1	-29.4	0.2	17.4	48.3
CSc1ccccc1NC(=O)C1(C)CCN1C(=O)Cc1ccccc1Cl (stereo unspecified)	·	·	0.2	1.8	2.0	·	-20.6	·
Cc1ccc(NC(=O)NNC(=O)c2snnc2C)cc1	i	1.7	-19.3	0.6	-1.9	-7.6	-5.5	0.1

Main list, from the start:
SMILES	Rce1 inh	PABP polyA inh	Yeast UUG start	MT1-MMP act inh	MT1-MMP act inh RFP	eIF4H inh	Env fusion inh	CSC inhib	others
CCC(C)NC(=O)CNC(=O)Cn1c(C)cc2ccccc2c1=O (stereo unspecified)	i	12.3	-12.3	3.0	5.0	2.3	-16.3	-3.8
O=C(O)CC1(CC(=O)Nc2ccc(C(F)(F)F)cc2)CCCC1	i	6.6	-3.5	-0.1	4.3	5.3	5.9	10.8
O=C(/C=C/c1ccc(OC(F)F)cc1)Nc1cccc(S(=O)(=O)NC2=NCCCCC2)c1	i	-8.5	-7.5	-0.6	-22.5	-16.8	7.9	18.1
Fc1ccc(Nc2nnc(C(F)(F)F)s2)cc1Cl	i	-2.3	-8.3	-11.1	-29.4	0.2	17.4	48.3
CSc1ccccc1NC(=O)C1(C)CCN1C(=O)Cc1ccccc1Cl (stereo unspecified)	·	·	0.2	1.8	2.0	·	-20.6	·
Cc1ccc(NC(=O)NNC(=O)c2snnc2C)cc1	i	1.7	-19.3	0.6	-1.9	-7.6	-5.5	0.1
COc1cc(/C=c2\sc3n(c2=O)C(c2ccccc2)C(c2ccccc2)=NN=3)ccc1O (stereo unspecified)	·	-20.4	-8.7	-60.0	-12.5	-11.8	·	103.3*
Cc1ccc(-c2noc(=O)n2CC(=O)c2ccc(Cl)cc2)cc1	i	-18.2	-9.0	-3.0	-2.9	3.0	-7.3	-2.5
C#CCOCCOCCOCCNc1nc(N2CCN(C(=O)[C@H](CCC(=O)O)n3cc(C(N)Cc4ccc(O)cc4)nn3)CC2)nc(N2CCN(C(=O)[C@H](CCC(=O)O)n3cc(C(N)CC(C)C)nn3)CC2)n1 (stereo partly specified)	i	10.5	·	·	·	11.6	·	13.9
C[C@]12c3[nH]c4ccc(Cl)cc4c3CCN1C(=O)[C@@H](CC(=O)NCc1ccco1)C[C@@H]2C(=O)N1CCCCC1	·	·	1.5	-11.5	-14.6	·	1.4	·
NC(=O)COC(=O)c1cc(S(=O)(=O)N2CCN(c3ccccc3)CC2)ccc1Cl	i	-10.9	·	-3.1	4.3	-2.1	4.2	-10.2
Cc1ccc(NC(=O)COC(=O)c2cccc3c2C(=O)c2ccccc2C3=O)c(C)c1	i	-2.7	-17.5	-1.2	-1.8	-9.2	-7.1	36.0
COc1ccccc1NC(=S)NCc1ccccn1	i	-14.2	·	-1.2	1.4	-3.5	-8.5	-18.5
CC(C)(C)NC(=O)C1(C)CCC(=O)N1C1CCN(Cc2ccccc2)CC1 (stereo unspecified)	·	·	-3.0	4.5	6.1	·	-12.6	·
Nc1nc(COC(=O)C2CC(=O)N(Cc3ccccc3Cl)C2)nc(Nc2ccccc2)n1 (stereo unspecified)	·	·	-1.3	2.4	4.7	·	·	0.8
COc1ccc(-c2noc(CSc3nc(-c4ccccc4)cc(=O)[nH]3)n2)cc1OC	i	-1.7	0.2	6.6	3.9	-2.6	·	·
O=C(COC(=O)C1CCN(S(=O)(=O)c2ccc(Cl)c(C(F)(F)F)c2)CC1)NCc1ccco1	i	·	·	1.8	4.8	·	-25.0	-12.2
CCCSc1nc2c(c(=O)[nH]c(=O)n2C)n1CCc1ccccc1	i	-4.5	-10.9	0.1	-0.2	-1.9	·	-7.2
COc1ccc2nccc(C(N)=O)c2c1	i	2.6	-21.8	1.5	4.0	-10.5	2.6	-3.6
CC1CCN(C(=O)CCN2C(=O)C3C4C=CC(C4)C3C2=O)CC1 (stereo unspecified)	i	-5.1	0.4	-1.1	2.2	3.3	11.6	2.0
COc1ccc(CCNC(=O)C2CCCN(S(=O)(=O)c3cnc[nH]3)C2)cc1OC (stereo unspecified)	i	9.3	-17.3	0.4	8.2	-1.7	3.2	-9.7
COc1ccc(C(=O)NCc2oc(-c3ccccc3)cc2C(=O)O)cc1	i	6.0	-12.4	6.3	5.4	-2.5	·	3.6
CCOC(=O)c1sc(NC(=S)NC(=O)C2CC2)cc1C	i	-8.3	-14.5	2.5	1.6	-2.2	10.7	-4.1
CC1CCc2cc(F)ccc2N1C(=O)CCC(=O)O (stereo unspecified)	i	6.2	-0.4	0.5	4.5	-11.0	·	8.8
O=C(COC(=O)c1cccnc1Cl)NC12CC3CC(CC(C3)C1)C2	·	·	-3.0	0.9	-1.4	·	10.8	-4.7

Brought forward from above: two compounds, followed by the next part.
SMILES	Rce1 inh	PABP polyA inh	Yeast UUG start	MT1-MMP act inh	MT1-MMP act inh RFP	eIF4H inh	Env fusion inh	CSC inhib	others
CC1CCc2cc(F)ccc2N1C(=O)CCC(=O)O (stereo unspecified)	i	6.2	-0.4	0.5	4.5	-11.0	·	8.8
O=C(COC(=O)c1cccnc1Cl)NC12CC3CC(CC(C3)C1)C2	·	·	-3.0	0.9	-1.4	·	10.8	-4.7
N#Cc1ccc(-c2ccc(F)cc2)nc1Oc1ccccc1	i	-4.6	-9.2	-4.6	-8.7	-1.2	43.7	-7.3
CCOC(=O)c1n[nH]n2c1nc(=O)c1ccccc12	i	9.7	-27.5	0.9	4.3	4.3	-4.6	-12.2
N#Cc1ccc(OCC(=O)Nc2ccncc2)cc1	i	6.6	-4.4	3.0	-0.4	-3.5	-39.9	-5.9
Cc1onc(-c2c(Cl)cccc2Cl)c1C(=O)N1CCN(Cc2ccccc2)CC1	·	3.3	1.9	-4.8	-7.3	-11.3	22.4	3.4
COc1ccc(OCCCC(=O)NCC(C)C)cc1	i	4.1	-10.0	4.7	4.4	-0.2	·	5.6
O=[N+]([O-])c1ccccc1S(=O)(=O)NCCSCc1ccco1	·	·	-3.9	4.8	-0.7	·	1.7	-5.4
O=C(NCc1ccccn1)c1cccc(NS(=O)(=O)c2ccccc2F)c1	i	3.9	·	-1.1	0.1	-6.8	-4.5	-7.4
COCCNC(=S)NCc1cccs1	i	4.2	-19.0	-2.9	5.6	-5.3	3.9	-7.4
COc1ccc(OC)c(-n2c(-c3ccc(S(C)(=O)=O)cc3)cc(C=O)c2C)c1	i	-0.2	3.9	-2.5	1.2	-3.7	·	-10.3
COc1ccc(CCNC(=O)[C@@H](NC(=O)N2CCn3c2nc2ccccc23)C(C)C)cc1OC	i	3.8	-18.5	0.1	0.3	7.3	5.2	2.3
CC(=O)c1ccc(NC(=O)c2cc(=O)[nH]c3ccccc23)cc1	·	-2.2	-14.7	2.9	0.2	-0.5	13.3	-14.8
CCC(Sc1nc2c(c(=O)[nH]1)CCC2)C(=O)Nc1cccc(OC)c1 (stereo unspecified)	·	6.9	-21.7	0.3	-0.2	-4.3	19.0	·
CCCCN1C(=O)C(=O)NC[C@@H]1CCCCN	i	·	5.8	-0.5	3.3	·	-6.9	-6.0
CCSc1nc(O)cc(=O)n1-c1ccc(OC)cc1	i	-4.6	-12.1	2.2	2.6	-5.8	-0.1	-3.3
Cc1ccc(C(=O)NCCc2nnc3ccc(SCC(=O)Nc4c(C)cc(C)cc4C)nn23)cc1	i	-14.8	·	3.2	-1.3	1.5	10.8	10.8
CCN(CC)S(=O)(=O)c1cccc(-c2n[nH]c(=S)n2C(C)COC)c1 (stereo unspecified)	i	0.8	·	1.7	2.4	-2.3	6.0	-0.3
CC(=O)c1cccc(NC(=O)Cn2cnc(S(=O)(=O)N3CCCCC3)c2)c1	i	5.8	-5.7	1.2	-0.9	2.3	4.6	-0.9
Cc1c(-n2cc(C(=O)O)c(=O)c3cc(F)c(N4CCCC(O)C4)c(F)c32)c(=O)n(-c2ccccc2)n1C (stereo unspecified)	i	-1.2	·	-3.3	3.0	-3.8	28.7	-1.8
Cc1ccc(C=C2C(=O)c3ccccc3C2=O)o1	i	-2.6	-26.9	14.6	10.1	50.4	-31.8	-10.1	eIF4H inh retest=1.9;PABP polyA inh retest=4.1
CCCn1c(SCC(=O)Nc2ccc3c(c2)OCO3)n[nH]c1=O	·	·	-20.4	-0.6	2.5	·	26.6	-13.9
CCN(CC(=O)NC1CCS(=O)(=O)C1)S(=O)(=O)c1ccccc1Cl (stereo unspecified)	i	11.7	-3.9	4.3	2.4	4.9	-8.1	-9.3
COc1ccc(CCn2c(NCc3ccco3)nc3c2c(=O)[nH]c(=O)n3C)cc1	i	4.6	2.1	-0.7	-2.9	-0.3	·	0.5
CCc1ccccc1NC(=O)Nc1c(C)n(C)n(-c2ccccc2)c1=O	i	5.9	-15.1	-1.1	4.0	-11.7	-6.7	-3.7
CC(C)C[C@@H](CO)N1CCN(CC(C)C)CCC1=O	i	-1.0	-2.6	2.6	0.1	-14.8	-12.8	1.1
O=C(O)CCC(=O)N1N=C(c2ccc(Br)cc2)CC1c1cccs1 (stereo unspecified)	i	5.0	·	2.0	0.1	-8.0	2.8	6.2

New compounds follow.
SMILES	Rce1 inh	PABP polyA inh	Yeast UUG start	MT1-MMP act inh	MT1-MMP act inh RFP	eIF4H inh	Env fusion inh	CSC inhib	others
COc1ccccc1NC(=S)NNC(=O)c1ccc(O)cc1	i	-5.3	-1.9	0.4	0.6	-4.4	0.0	-2.0
Cc1ccc(C)c(N(CC(=O)NN=C2CCCCCCC2)S(C)(=O)=O)c1	i	-3.2	-14.5	2.5	7.0	5.6	·	-6.9
CCN=C1SC(CC(=O)Nc2ccc(C(F)(F)F)cc2)C(=O)N1CC (stereo unspecified)	i	3.0	-6.2	12.4	-1.4	-6.6	-15.1	-8.1
O=C(NCc1ccccc1Cl)c1ccc2sc([C@@H]3O[C@H](CO)[C@H](O)[C@H](O)[C@H]3O)nc2c1	·	·	-3.0	-0.9	3.7	·	-13.3	·
COc1ccc(Cl)cc1NC(=O)CN(C)C(=O)c1ccc(-n2cncn2)cc1	·	·	-1.3	-0.5	2.1	·	-13.1	-3.3
CC(CC(=O)NCCc1ccc(F)cc1)c1ccccc1 (stereo unspecified)	i	5.1	-13.3	-0.3	-5.5	-4.5	9.3	-11.9
CC(C)(C)CC(=O)Nc1cccc2c1CCCC2	i	-3.3	-7.4	0.0	5.2	-0.7	-16.3	-11.7
O=C(CCn1c(=O)[nH]c2ccccc2c1=O)N1CCN(c2ccc(Cl)cc2)CC1	i	0.6	-7.2	11.0	-2.3	-0.7	-31.4	-12.1
O=C(OCC(=O)N1CCc2ccccc2C1)c1ccc(Cl)c([N+](=O)[O-])c1	·	·	-5.6	9.2	-0.2	·	·	-2.1

Source: PubChem BioAssay (several laboratories)

These rows are one share of the data; rates above refer to the full screens.
